RE007 growth inh: qHTS Assay for Inhibitors of the HIV-1 protein Vpr; S. pombe RE007 Vpr strain, BacTiter-Glo ATP luminescence, 24 h; control for the full effect not named in the record; 360,000 tested, 0.21% active; AID 651644, 2012; Potency, µM (series often up to 92.2 µM), inactives show at the top dose activity change, negative = less growth; active = well fitted falling curve with a large enough effect; inconclusive = small, poorly fitted or top-dose-only effect; inactive = no such curve, though single readings can be large or run the other way;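 further: nearly all actives have a fitted effect of over 50% in size; the assay follows cell death caused by Vpr and the record does not say whether a fall means rescue or toxicity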
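Fission yeast strain RE007, carrying one chromosomally integrated HIV-1 vpr copy, was seeded at OD 0.01 in PMG+AL medium with 23 nL pinned compound. After 24 h at 30 °C and 99% humidity, viability was read by BacTiter-Glo luminescence.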
StopGo reporter: High Throughput Screening for Foot and Mouth Disease Virus Antivirals. human cells with a luciferase reporter of 2A StopGo recoding; control for the full effect not named in the record. Potency, µM (doses to about 57.9 µM), for inactives: at the top dose signal change, negative = less light. 410,000 tested, 1.2% active; active = well fitted falling curve with a large enough effect; inconclusive = small, poorly fitted or top-dose-only effect; inactive = no such curve, though single readings can be large or run the other way; tested in HEK293T cells; further: nearly all actives have a fitted effect of over 45% in size; luciferase light after 4 h
* = called active by the depositor; ? = inconclusive; & = joins results of further samples; [ ] = another dose, or the depositor's remark. On the % scale 0 is the no-effect control and ±100 the full control effect; potency means the concentration at half of the fitted maximal effect. These rows are one share of the data; count on the stated rates, not on these rows.

SMILES	RE007 growth inh	StopGo reporter
CCc1nc2ccc(C(=O)Nc3cc(-c4ccccc4)ccc3OC)cn2c1N(CC)Cc1cccc(Br)c1	-15%	-2%
N#Cc1ccc(S(=O)(=O)N2CCCCC2c2cc(C(=O)NCc3ccccc3)no2)cc1 (stereo not drawn)	7%	-10%
COC(=O)[C@@]12C[C@@H](CC(=O)NCCc3ccccc3OC)C(=O)N(Cc3ccco3)C1=CCC(C)(C)C2	7%	-11%
CCc1nc2c(OCCC3CCCCC3)cccn2c1N(C)C(=O)c1ccc(C)cc1	-17%	?
CCCNC(=O)C1(C)CCCN(Cc2ccccc2F)C1 (stereo not drawn)	9%	-14%
COc1ccc(C(=O)CC(c2ccc3c(c2)OCO3)c2c(O)c3ccccc3oc2=O)cc1OC (stereo not drawn)	-15%	48%[activator]
COc1ccc([C@H]2N[C@]3(CCCN(Cc4cccn4C)C3=O)[C@H]3C(=O)N(Cc4ccccc4)C(=O)[C@@H]23)cc1	5%	-18%
Cc1ccc(S(=O)(=O)C=CS(=O)(=O)c2ccc(C)cc2)cc1	1.4µM*	?
COc1cccc(OC)c1C(=O)NCc1ccco1	5%	-16%
CCN(CC(=O)Nc1ccc(C#N)cc1)CC(=O)Nc1ccc2c(c1)OCCO2	-13%	-7%
Cc1ccc(C)c(Nc2cc(C)nc3ccccc23)c1	10%	?
COc1ncnc2c1ncn2CCCNCc1ccco1	-11%	-1%
COc1ccccc1C(=O)COC(=O)C1CCN(S(=O)(=O)c2ccccc2)CC1	2%	-5%
CCC(c1nnnn1C(C)(C)C)N1CCN(C/C=C/c2ccccc2)CC1 (stereo not drawn)	4%	-24%
COCCNC(=O)C1CCCN(C(=O)COc2ccc(Cl)cc2Cl)CC1 (stereo not drawn)	-3%[18.4 µM]	-8%
O=C1Nc2ccccc2N(C(=O)c2c(F)cccc2F)C1c1nc2ccccc2[nH]1 (stereo not drawn)	-14%	10%
O=C(Oc1ccccc1)c1cc(O)c(O)c(O)c1	1%	5%
O=C(c1ccc(Cl)c(Cl)c1)N1CCC(=O)N(C(CO)Cc2ccccc2)CC1 (stereo not drawn)	6%	-19%
Cc1ccsc1C(=O)NCC(c1cccs1)N1CCOCC1 (stereo not drawn)	3%	-23%
CCOC(=O)C1=CCN(S(=O)(=O)c2ccccc2F)C1c1cccc(F)c1 (stereo not drawn)	4%	-20%
CCCCCCn1c(=O)n2n(c1=O)C[C@]1(OC(=O)NCc3ccccc3)CN(S(=O)(=O)c3ccc(C)cc3)C[C@]1(O)C2	7%	-20%
COc1ccc(CN2C(=O)CCC2(C)c2nc3ccccc3[nH]2)cc1 (stereo not drawn)	9%	-8%
CCCS(=O)(=O)NC(=O)C1(C)CCN(C(=O)c2cc(F)cc(F)c2)C1 (stereo not drawn)	16%	-15%
CCCNC(=O)C1(C)CCN(Cc2ccc(-n3ccnc3)cc2)C1 (stereo not drawn)	-17%	11%
CC(C)c1ccc(NC(=O)CN(C)C2=NS(=O)(=O)c3ccccc32)cc1	-2%	-8%
Oc1ccc2sc(-c3ccccc3O)c(-c3ccc(OCCN4CCCCC4)cc3)c2c1	-8%	-22%
OC(c1cccc(Cl)c1)c1ncc(-c2ccc(C(F)(F)F)cc2)[nH]1 (stereo not drawn)	4%	5%
CCOc1ccc(C(=O)N2CCN(c3ncccn3)CC2)cc1	17%	0%
C=CCN1CCOc2ccc(C)cc2S1(=O)=O	10%	0%
COC(=O)C[C@H]1CC[C@H](NC(=O)c2ccc(F)cc2)[C@@H](CO)O1	-8%	-13%

Filtered by structure: those above with a Cl atom (3)
SMILES	RE007 growth inh	StopGo reporter
COCCNC(=O)C1CCCN(C(=O)COc2ccc(Cl)cc2Cl)CC1 (stereo not drawn)	-3%[18.4 µM]	-8%
O=C(c1ccc(Cl)c(Cl)c1)N1CCC(=O)N(C(CO)Cc2ccccc2)CC1 (stereo not drawn)	6%	-19%
OC(c1cccc(Cl)c1)c1ncc(-c2ccc(C(F)(F)F)cc2)[nH]1 (stereo not drawn)	4%	5%

(more compounds)
SMILES	RE007 growth inh	StopGo reporter
CCOC(=O)C[C@H]1c2ccccc2S(=O)(=O)N1c1cccc(OC)c1	-18%	94%[activator]
COc1ccc(S(=O)(=O)NC(=O)C2(C)CCN2C(=O)C2(c3ccccc3)CCCC2)cc1 (stereo not drawn)	2%	12%
c1coc(-c2ccc3nncn3c2)c1	5%[18.4 µM]	-10%
CCOC(=O)C1C(C)C(C(C)(C)C)N(S(=O)(=O)c2ccc(C)cc2)C1c1ccccc1 (stereo not drawn)	0%	?
NCCc1ccccc1	10%	-17%&-11%
COc1ccc(Nc2c(-c3ccc(F)cc3)nc3nc(C)cc(C)n23)cc1	-11%	-7%
CCC(c1nnnn1-c1ccc2c(c1)OCCO2)N1CCN(c2cc(C)ccc2C)CC1 (stereo not drawn)	4%	?
O=C(O)C(Cc1ccccc1)N1C(=O)C=CC1=O (stereo not drawn)	10%	5%
CC(C)OC(=O)N(C)C[C@@H]1OCc2ccccc2-c2c(n(C)c3ccccc23)C(=O)N([C@@H](C)CO)C[C@H]1C	-4%	-9%
COC(=O)c1ccc2nc(C(C)(C)C)c(Cc3ccc(OC)cc3C)n2c1	-6%	?
O=C(O)C(=Cc1ccc([N+](=O)[O-])cc1)c1cccc(Cl)c1	1%	-15%
COc1ccc(CCNC(=O)Nc2ccc3c(c2)c(=O)n(C)n3Cc2ccc(Cl)cc2)cc1OC	11%	?
Clc1ccc2nc(C(Cl)(Cl)Cl)[nH]c2c1	17%	-22%
CCOc1ccc(-c2noc([C@@H]3O[C@H](CO)[C@@H](O)[C@H]3O)n2)cc1	4%	22%
CC(=O)Nc1ccc(CNc2nc(NCC3CC3)nc3ccsc23)cc1	?	3%
COc1ccc([C@H]2/C=C\CN(S(=O)(=O)c3cccc4cccnc34)[C@@H](C)C(=O)N2Cc2ccc(F)cc2)cc1	14%	-9%
CCOC(=O)c1cn(Cc2ccccc2)nc1-c1ccccc1	-15%	-8%
COC(=O)C1=C(c2cc3ccccc3o2)C[C@@H]2CC[C@H]1N2C(=O)NCCO	4%	-12%
Cc1oc(-c2ccc(F)cc2F)nc1CN1CCN(C(=O)c2ccco2)CC1	-11%	?
COc1cc(-c2cc3nc(NCCOc4ccccc4)ccn3n2)cc(OC)c1OC	-24%[18.4 µM]	?
CN1OC[C@@H]2CN(Cc3ccccc3)[C@H](c3ccc(N4CCCCC4)cc3)C[C@@H]21	-21%	-10%
CC(C)C[C@@H](CNCC(=O)[C@H](Cc1ccccc1)NC(=O)c1[nH]cnc1C(=O)N[C@@H](C)CN)NC(=O)c1nc[nH]c1C(=O)N[C@@H](C)C(=O)O	5%	-19%
CC1(C(=O)Nc2cnc3ccccc3c2)CCN1Cc1cc2ccccc2o1 (stereo not drawn)	-3%[18.4 µM]	10%
C#Cc1ccc([C@@H]2C=C(C(=O)NCc3ccccc3)O[C@H](OCCCCO)C2)cc1	-2%	4%
Cc1noc(C)c1-c1ccc(C(=O)NC2CCCCC2)c2occc12	0%	32%[activator]
COc1ccc(-c2csc(N(CCCN(C)C)C(=O)c3ccc(OC)c(OC)c3)n2)cc1	-1%	?
OCC1OC(n2cnc3c(NC4CCCC4)ncnc32)C(O)C1O (stereo not drawn)	10%	-6%
COc1cc(CNC(=O)c2cc(-c3cc(C)cc(F)c3)n[nH]2)cc(OC)c1	-4%	-26%
O=C(C1CCCCC1)N1C[C@H](O)[C@@H](n2cc(-c3ccc(F)cc3)nn2)C[C@@H]1c1ccccc1	13%	-19%
CNC(=O)C[C@@H]1C(=O)N(c2ccc(OC)cc2)CC1(C)C	6%	-7%
CC(=O)c1c(C)[nH]c(C(=O)OC(C)C(=O)NC2CCCCC2)c1C (stereo not drawn)	-12%	-4%
O=C1NC[C@@H](CCCCN2C[C@H](Cc3ccccc3)N(CCC3CCCCC3)C(=O)C2=O)N(Cc2ccccc2)C1=O	-19%	21%
NC(=O)c1cccc(-c2csc(C(O)c3cccc(Cl)c3)n2)c1 (stereo not drawn)	8%[18.4 µM]	-12%
Nc1c(O)cccc1C(=O)O	-8%	?
COC(=O)[C@@]12C[C@@H](CC(=O)NCCC(C)C)C(=O)N(CCc3ccc(OC)c(OC)c3)C1=CCC(C)(C)C2	-10%	16%
Cn1cnc(CCNC(=O)C[C@H]2CC[C@@H]3[C@H](COC[C@H](O)CN3C(=O)C3CCCC3)O2)c1	-14%	-12%
Cc1noc(C)c1S(=O)(=O)N(C)C[C@@H]1OCc2cnnn2CCCC(=O)N([C@H](C)CO)C[C@@H]1C	-2%	-7%
O=C(CCC1CCCC1)NNC(=O)COc1ccc(Br)cc1	18%	-5%
COC(=O)c1ccc2nc(-c3ccco3)c(Cc3cccc(F)c3)n2c1	-14%	?
Cc1cnc(CNC(=O)c2csc([C@@H]3C[C@H](O)[C@@H](CO)O3)n2)cn1	10%	-10%
O=C(NC1CCCC1)C1c2ccccc2OCC(=O)N1C1CC1 (stereo not drawn)	2%	-13%
CC(C)[C@H](COC=O)NC(=O)[C@H]1O[C@@H](n2ccc(N)nc2=O)[C@H](O)[C@@H]1O	0%	-8%
C[C@]12CC[C@H](O)C[C@H]1CC[C@@H]1[C@@H]2CC[C@]2(C)[C@@H](C3=CC(=O)OC3)CC[C@]12O	1%	-17%
CC(C)CN(C(=O)CSc1nc2ccccc2[nH]1)c1c(N)n(Cc2ccccc2)c(=O)[nH]c1=O	4%	-10%
O=C(Nc1ccc(S(=O)(=O)O)cc1)c1ccc2c(c1)S(=O)(=O)c1ccccc1C2=O	4%	-16%

7 of these compounds in a different format:
Each structure is followed by: RE007 growth inh	StopGo reporter
> O=C(CCC1CCCC1)NNC(=O)COc1ccc(Br)cc1
  18%	-5%
> COC(=O)c1ccc2nc(-c3ccco3)c(Cc3cccc(F)c3)n2c1
  -14%	?
> Cc1cnc(CNC(=O)c2csc([C@@H]3C[C@H](O)[C@@H](CO)O3)n2)cn1
  10%	-10%
> O=C(NC1CCCC1)C1c2ccccc2OCC(=O)N1C1CC1 (stereo not drawn)
  2%	-13%
> CC(C)[C@H](COC=O)NC(=O)[C@H]1O[C@@H](n2ccc(N)nc2=O)[C@H](O)[C@@H]1O
  0%	-8%
> C[C@]12CC[C@H](O)C[C@H]1CC[C@@H]1[C@@H]2CC[C@]2(C)[C@@H](C3=CC(=O)OC3)CC[C@]12O
  1%	-17%
> CC(C)CN(C(=O)CSc1nc2ccccc2[nH]1)c1c(N)n(Cc2ccccc2)c(=O)[nH]c1=O
  4%	-10%

Continuation.
SMILES	RE007 growth inh	StopGo reporter
COc1cccc(CCN2C(=O)CCC3=C2CCC3=O)c1	15%	-18%
CCNC(=O)N1Cc2ccccc2-n2nncc2C1	12%	1%
CCC(CC)c1nnc(NC(=O)Cc2c[nH]c3ccccc23)s1	-5%	-21%
CCCCN1C(=O)C(CC(=O)NC2CCCC2)CC(C(=O)N2CCOCC2)=C1C (stereo not drawn)	-30%	40µM*
COC(=O)c1ccc2nc(-c3ccco3)c(Cc3cccc(Cl)c3)n2c1	-7%	-13%
CN1CCN(c2ccc(CNC(=O)C3Cc4c(-c5ccccc5Oc5ccccc5)ccnc4O3)cc2)CC1 (stereo not drawn)	-27%	-5%
CC1(C(=O)Nc2ccccc2Br)CCN1C(=O)Cc1ccc(Cl)cc1Cl (stereo not drawn)	-11%[18.4 µM]	-18%
CCCCNC(=O)C1(C)CCN1C(=O)c1cc2ccccc2s1 (stereo not drawn)	5%[18.4 µM]	-16%
O=C(NCc1cccc(Br)c1)c1cc(-c2ccccc2)nn1CC1CC(c2cccnc2)=NO1 (stereo not drawn)	8%	4%
CCO[C@H]1OC(C(=O)O)=C[C@@H](c2coc3ccccc3c2=O)[C@@H]1CCCO	19%	-2%
CC(=O)NC(CC(C)C)C(=O)NC(CO)C(=O)NC(CCC(=O)O)C(=O)NC(C)C(=O)NC(CC(C)C)C(N)=O (stereo not drawn)	5%	2%
CC1(C(=O)NS(=O)(=O)c2ccc(Br)cc2)CCN1C(=O)C/C=C/c1ccccc1 (stereo not drawn)	6%	-7%
CN(C)c1ccc(C=O)c(Oc2ccccc2)c1	-11%	21%
O=C(NCc1ccncc1)[C@@H]1CCCN1C(=O)[C@H]1CCCN1C(=O)c1ccccc1	6%	-19%
COc1ccccc1Cc1c(C(C)(C)C)nc2cc(C)c(Br)c(C)n12	-10%	-34%
COc1ccc(S(=O)(=O)N(C)C[C@H]2Oc3c(NC(=O)Nc4ccccc4)cccc3C(=O)N([C@H](C)CO)C[C@@H]2C)cc1	-1%	-13%
CC(O)(c1cccnc1)c1nc(-c2ccc(F)c(Cl)c2)cs1 (stereo not drawn)	45%	-25%
C(=C\c1ccccc1)/CN1CCN(C(c2nnnn2C2CCCCC2)C2CC2)CC1 (stereo not drawn)	2%	-9%
CCc1nc2ccc(C(=O)NCCN3CCNC3=O)cn2c1N(C)CCC(C)C	-7%	-18%
O=C1c2ccccc2C(c2nnnn2-c2ccc3c(c2)OCCO3)N1CCc1ccccc1F (stereo not drawn)	7%	7%
CC1(C(=O)Nc2cccc3c2CCCC3)CCN1C(=O)Cc1ccccc1Cl (stereo not drawn)	5%[18.4 µM]	-8%
CCCCCCCCN1C(=O)[C@H](CC(=O)NCC2CCCCC2)C[C@@]2(C(=O)OCC)CCCC=C12	-14%	-17%
COC(=O)c1cc(=O)nc(NNC(C)=O)s1	9%	-3%
COCCCN1C(=O)C(CC(=O)NCc2cccs2)CC(C(=O)N2CCOCC2)=C1C (stereo not drawn)	12%	-16%

Screens (PubChem BioAssay)
